FGF22 binding: binders of human FGF22 protein, primary screen, FGF22 synaptogenesis inhibitor project, biophysical, thermal shift, single point; Fibroblast growth factor 22 (Homo sapiens), Q9HCT0; recombinant FGF22 thermal shift, SYPRO orange fluorescence; percent of sucrose octasulfate shift, DMSO zero; calls only at 9.99 µM; 1.5% of 340,000 active; AID 651658, 2012;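 active = melting point raised past a set limit in the mean and every replicate; three in four hits are not shown here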
Target sequence (Q9HCT0 whole entry, looked up): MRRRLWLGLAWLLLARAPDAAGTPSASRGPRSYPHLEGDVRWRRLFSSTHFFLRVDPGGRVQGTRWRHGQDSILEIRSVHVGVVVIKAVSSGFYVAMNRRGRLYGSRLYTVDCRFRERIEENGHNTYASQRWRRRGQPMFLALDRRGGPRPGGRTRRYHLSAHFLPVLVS
AF4-AF9 inh: inhibitors of AF4 peptide binding to AF9, primary screen, biochemical, AlphaScreen, biotin-AF4 peptide, FLAG-AF9, single point | Protein AF-9 (Homo sapiens), P42568 | inhibition, % at 10 µM | 0.47% of 350,000 active;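 active = every replicate reaching a set inhibition limit, whatever the replicate mean, cut at about 25% in these data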;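 also: 0% = plate neutral control median and 100% = total signal loss; the record names both 10 and 1 µM as test concentration; the first replicate is given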
Target sequence (P42568 whole entry, looked up): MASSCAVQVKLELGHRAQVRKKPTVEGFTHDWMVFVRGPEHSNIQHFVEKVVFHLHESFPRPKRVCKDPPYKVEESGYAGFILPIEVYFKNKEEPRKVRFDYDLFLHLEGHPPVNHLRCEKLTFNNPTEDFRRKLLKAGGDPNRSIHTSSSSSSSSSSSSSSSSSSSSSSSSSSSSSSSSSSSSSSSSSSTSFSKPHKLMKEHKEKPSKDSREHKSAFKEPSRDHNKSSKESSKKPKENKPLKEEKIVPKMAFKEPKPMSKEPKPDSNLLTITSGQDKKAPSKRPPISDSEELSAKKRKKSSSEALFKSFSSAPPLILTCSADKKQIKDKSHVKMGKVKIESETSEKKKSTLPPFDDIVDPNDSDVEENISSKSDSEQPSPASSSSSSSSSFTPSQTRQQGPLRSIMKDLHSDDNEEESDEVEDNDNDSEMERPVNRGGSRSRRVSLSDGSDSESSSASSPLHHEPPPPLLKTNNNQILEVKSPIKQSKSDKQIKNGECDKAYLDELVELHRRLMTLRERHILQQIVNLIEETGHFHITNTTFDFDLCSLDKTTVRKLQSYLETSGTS
Numbers without * were called inactive; i = inactive; + = active, no number. Only part of the results is shown; the hit share may differ from the screen's.

SMILES | FGF22 binding | AF4-AF9 inh
Nc1ncnc2c1ncn2[C@@H]1O[C@H](C(=O)NCCc2ccc(F)cc2)[C@@H](O)[C@H]1O | i | -2.9
O=C(c1ccc(N2C(=O)CCC2=O)cc1)N1CCCSC1=Nc1ccccc1 | i | -2.8
COc1cccc(NC(=O)Nc2ccc3c(c2)C(=O)N(C)C[C@@H](OC)[C@@H](C)CN(C)[C@@H](C)CO3)c1 | i | 13
CCOC(=O)c1c(C)cc(O)cc1O | i | -0.6
CC1(C(=O)NS(=O)(=O)c2ccc(C#N)cc2)CCN1C(=O)c1ccccc1CCc1ccccc1 (centres undefined) | i | -0.6
CCOC(=O)c1c(C)[nH]c(/C(C)=N/NC(=O)c2cccnc2)c1C | i | 0.7
O=C(C1CCC1)N1CCCCN2[C@H](CO)[C@@H](c3ccc(-c4cccc(F)c4)cc3)[C@H]2C1 | i | 5.8
O=C1NC(=O)C2(CCCc3ccc(N(CCO)CCO)cc32)N1 (centres undefined) | i | 1.6
c1ccc(CCCNCCCn2cnc3c(OCc4ccccc4)ncnc32)cc1 | i | 2.4
C=CC[C@@]1(C(=O)NCCCOC)N=C(c2ccc(OCCCO)cc2)O[C@@H]1c1ccccc1 | i | 0.6
CCOC(=O)C1=C[C@@H](C)N(S(=O)(=O)c2ccc(C)cc2)[C@H]1c1ccccc1 | i | -1.2
CC(=O)Nc1ccccc1NC(=O)c1ccc2c(c1)OCO2 | i | -2.6
COc1ccccc1C#Cc1ccc([C@H]2[C@H]3CN(C(=O)C4CCCC4)CCCCN3[C@H]2CO)cc1 | i | -4.8
O=C(C1CC1)N1CCCCN2[C@@H](CO)[C@H](c3ccc(C#CC4CC4)cc3)[C@@H]2C1 | i | 4.6
CN(C)C(=O)[C@]1(CCS(=O)(=O)c2ccccc2)N=C(c2ccc(OCCCO)cc2)O[C@@H]1c1ccccc1 | i | 7.8
COc1ccc(C#Cc2ccc3c(c2)[C@]2(C(=O)N3)[C@H](c3ccc(O)cc3)N3[C@H](c4ccccc4)[C@H](c4ccccc4)OC(=O)[C@H]3[C@@H]2C(=O)N2CCCCCCC2)cc1 | i | -6.9
COc1ccc(Cn2ccnc2SCC(=O)Nc2ccc(F)cc2F)cc1 | i | 5.6
Cc1csc(-c2ccc3cc(Cl)cc(Cl)c3n2)n1 | i | -3.3
C[C@@H]1C=C(C(=O)N2CCN(Cc3ccc4c(c3)OCO4)CC2)O[C@H](OCc2ccc(CO)cc2)C1 | i | -3.5
CCOC(=O)[C@]12CCCC=C1N(Cc1ccc(Cl)cc1Cl)C(=O)[C@H](CC(=O)NCc1ccc(OC)c(OC)c1)C2 | i | 3.7
CCCC(=O)N1CCC1(C)C(=O)Nc1ccccn1 (centres undefined) | i | -17
COc1ccc(S(=O)(=O)N(C)C[C@H]2Oc3cc(C#CC4CCCCC4)ccc3S(=O)(=O)N([C@H](C)CO)C[C@@H]2C)cc1 | i | -3.4
CCNC(=O)C1(C)CCN1CCC(=O)c1ccc(Br)cc1 (centres undefined) | i | 1.4
CC1=C2[C@@H](c3ccccc3)OB(O)C[C@@H]2n2c(=O)n(-c3ccccc3)c(=O)n2C1 | + | -1.9
COc1ccccc1NC(=O)N[C@H]1CC[C@@H](CCn2cc(-c3ccccc3OC)nn2)O[C@H]1CO | i | -0.5
COc1ccc2c3c(n(C)c2c1)[C@H](CO)N(C(=O)Nc1ccccc1F)CC31CN(C(C)=O)C1 | i | 0.2
[N-]=[N+]=NCc1ccccc1C[C@]1(C(=O)N2CCOCC2)COC(c2ccc(OCCCO)cc2)=N1 | i | 0.8
C[C@H]1CN([C@@H](C)CO)C(=O)Cc2cc(NC(=O)Nc3ccccc3)ccc2O[C@H]1CN(C)S(=O)(=O)c1ccccc1 | i | -6.6
CN(C)C(=O)c1ccc(-c2ccc([C@@H]3[C@@H](CO)N4CCCCN(C(=O)C5CCCC5)C[C@H]34)cc2)cc1 | i | 6.5
CN(C)CCCNC(=O)C[C@H]1CC[C@H](NC(=O)c2ccccc2F)[C@@H](CO)O1 | i | -1.2

Sorted by length of the SMILES (falling): part of the list above.
SMILES | FGF22 binding | AF4-AF9 inh
COc1ccc(C#Cc2ccc3c(c2)[C@]2(C(=O)N3)[C@H](c3ccc(O)cc3)N3[C@H](c4ccccc4)[C@H](c4ccccc4)OC(=O)[C@H]3[C@@H]2C(=O)N2CCCCCCC2)cc1 | i | -6.9
COc1ccc(S(=O)(=O)N(C)C[C@H]2Oc3cc(C#CC4CCCCC4)ccc3S(=O)(=O)N([C@H](C)CO)C[C@@H]2C)cc1 | i | -3.4
C[C@H]1CN([C@@H](C)CO)C(=O)Cc2cc(NC(=O)Nc3ccccc3)ccc2O[C@H]1CN(C)S(=O)(=O)c1ccccc1 | i | -6.6
CN(C)C(=O)c1ccc(-c2ccc([C@@H]3[C@@H](CO)N4CCCCN(C(=O)C5CCCC5)C[C@H]34)cc2)cc1 | i | 6.5
CN(C)C(=O)[C@]1(CCS(=O)(=O)c2ccccc2)N=C(c2ccc(OCCCO)cc2)O[C@@H]1c1ccccc1 | i | 7.8
C[C@@H]1C=C(C(=O)N2CCN(Cc3ccc4c(c3)OCO4)CC2)O[C@H](OCc2ccc(CO)cc2)C1 | i | -3.5
COc1ccccc1C#Cc1ccc([C@H]2[C@H]3CN(C(=O)C4CCCC4)CCCCN3[C@H]2CO)cc1 | i | -4.8
[N-]=[N+]=NCc1ccccc1C[C@]1(C(=O)N2CCOCC2)COC(c2ccc(OCCCO)cc2)=N1 | i | 0.8
CC1=C2[C@@H](c3ccccc3)OB(O)C[C@@H]2n2c(=O)n(-c3ccccc3)c(=O)n2C1 | + | -1.9
O=C(C1CC1)N1CCCCN2[C@@H](CO)[C@H](c3ccc(C#CC4CC4)cc3)[C@@H]2C1 | i | 4.6
CN(C)CCCNC(=O)C[C@H]1CC[C@H](NC(=O)c2ccccc2F)[C@@H](CO)O1 | i | -1.2
COc1ccc(Cn2ccnc2SCC(=O)Nc2ccc(F)cc2F)cc1 | i | 5.6
CC(=O)Nc1ccccc1NC(=O)c1ccc2c(c1)OCO2 | i | -2.6
Cc1csc(-c2ccc3cc(Cl)cc(Cl)c3n2)n1 | i | -3.3
CCCC(=O)N1CCC1(C)C(=O)Nc1ccccn1 (centres undefined) | i | -17

More compounds
SMILES | FGF22 binding | AF4-AF9 inh
Cn1cnc(S(=O)(=O)N2CCCCN3[C@H](CO)[C@@H](c4ccc(C#CC5CC5)cc4)[C@H]3C2)c1 | i | 1.8
CC(C)N1CC(=O)N2CSCC2C1=O (centres undefined) | i | -7.7
Cc1cn2c(=O)c3ncn(C4OC(CO)C(O)C4O)c3n(C)c2n1 (centres undefined) | i | -1.3
O=S(=O)(c1ccc(F)cc1)N1CCCCN2[C@H](C1)[C@H](c1ccc(C#CC3CCCC3)cc1)[C@@H]2CO | i | -5.6
O=C(NCc1ccccc1)C1c2ccccc2OCC(=O)N1Cc1cccnc1 (centres undefined) | i | -4.0
O=c1ccn([C@@H]2O[C@H](CNCc3ccccc3OCc3ccc(Cl)cc3Cl)[C@@H](O)[C@H]2O)c(=O)[nH]1 | i | 2.1
O=c1[nH]c(=S)[nH]c2c1C(c1ccc(F)cc1)OC(CCOCc1ccccc1)C2 (centres undefined) | i | -4.9
COc1ccc(NC(=O)Nc2ccc3c(c2)C(=O)N([C@H](C)CO)C[C@H](C)[C@H](CN(C)S(=O)(=O)c2ccc(OC)cc2)O3)cc1 | i | 0.9
COc1ccc(-c2c(C)nn3c(C(F)(F)F)cc(C)nc23)cc1 | i | 4.4
C[C@H](CO)N1C[C@H](C)[C@@H](CN(C)CC2CC2)Oc2c(NC(=O)Nc3cccc4ccccc34)cccc2C1=O | i | 5.5
CC(=O)Nc1cccc(NC(=O)c2ccc(S(=O)(=O)NCc3ccco3)cc2)c1 | i | 3.4
OC(CSc1nc(-c2ccccc2)c(-c2ccccc2)o1)CC(O)c1ccccc1 (centres undefined) | i | -0.2
CCOc1cc(/C=N/NC(=O)c2ccncc2)cc(Br)c1O | i | 1.0
CCOC(=O)[C@]12CCCC=C1N(Cc1ccco1)C(=O)[C@H](CC(=O)NCCCCc1ccccc1)C2 | i | 4.7
O=C(NCc1ccccc1)C1c2ccccc2OCC(=O)N1CCc1c[nH]c2ccccc12 (centres undefined) | i | 2.0
NC(=O)[C@H]1[C@@H]2C(=O)O[C@@H](c3ccccc3)[C@@H](c3ccccc3)N2[C@@H](c2ccccc2OCCO)[C@]12C(=O)Nc1ccc(C#CC3(O)CCCCCC3)cc12 | i | 1.0
Cc1ccc(N(CC(=O)N2CCCCCC2)S(C)(=O)=O)cc1 | i | 2.0
O=C1OC[C@@H](c2ccccc2)n2cc(/C=C/c3ccccc3)cc21 | i | 0.0
COCCCNC(=O)[C@@]1(Cc2ccccc2CN=[N+]=[N-])COC(c2ccc(OCCCO)cc2)=N1 | i | 3.6
O=[N+]([O-])c1nccn1C1C=CC(O)C(CO)O1 (centres undefined) | i | -1.1
O=C(C[C@H]1CC[C@@H](NC(=O)Nc2ccc(C(F)(F)F)cc2)[C@H](CO)O1)NCc1ccccn1 | i | -2.3
O=S(=O)(c1ccc(F)cc1)N1CCCCN2[C@H](C1)[C@H](c1ccc(-c3ccccc3F)cc1)[C@@H]2CO | i | -4.5
COC(=O)[C@]12CCCCC=C1N(Cc1ccco1)C(=O)[C@H](CC(=O)NCc1cccs1)C2 | i | -4.4
NC(c1csc(Nc2nccc(C(F)(F)F)n2)n1)C1CCCCC1 (centres undefined) | i | 11
Cc1cn([C@H]2C[C@H](O)[C@@H](CNCc3cc(Br)ccc3OCc3ccccc3)O2)c(=O)[nH]c1=O | i | 4.3
C[C@H]1CN([C@@H](C)CO)S(=O)(=O)c2ccc(C#CCC3CCCC3)cc2O[C@@H]1CN(C)C(=O)CC1CC1 | i | -1.7
CC[C@@H](C)[C@@H](CO[C@@H](Cc1ccccc1)C(=O)N[C@@H](CCS(C)(=O)=O)C(=O)OC(C)C)NCC(N)CS (some centres undefined) | i | 0.0
CN(C)c1cccc(Nc2ccc(-c3ccc(OC(F)(F)F)cc3)cn2)c1 | i | 6.0
COc1ccc([Si](C)(C)[C@@H]2[C@@H](CCn3cc([C@H](O)c4ccccc4)nn3)O[C@]3(C(=O)N(C)c4ccccc43)[C@H]2C)cc1 | i | 2.6
O=C1CC[C@@H]2c3[nH]c4ccccc4c3CCN12 | i | 1.7
[N-]=[N+]=NCCNC(=O)Nc1ccccc1 | i | 0.7
CC(C)C[C@H]1CNC(=O)C(=O)N1C[C@@H]1CCCN1C[C@H](Cc1ccccc1)N1C[C@H](CC(C)C)N(CC2CCCCC2)C(=O)C1=O | i | 3.3
CN(C)C(=S)Oc1ccccc1C1SCCS1 | i | 0.5
C[C@H]1CN([C@@H](C)CO)C(=O)Cc2cc(NC(=O)Nc3ccc(F)cc3)ccc2O[C@H]1CN(C)C(=O)NC1CCCCC1 | i | -2.0
C=CCN1Cc2ccccc2[C@H]2OC(c3ccc(OCCCO)cc3)=N[C@@]2(CCC(=O)OC(C)(C)C)C1=O | i | 2.1
CCc1nc2ccc(C(=O)Nc3cccc(OCC(=O)N(C)C)c3)cn2c1N(CCN(C)C)CC1CC1 | i | -1.0
O=S(=O)(N[C@@H]1CCCN(Cc2ccc(OCCO)cc2)C1)c1cccc2cccnc12 | i | 8.5
O=C(C[n+]1ccc(C(=O)NCc2ccccc2)cc1)c1ccc(F)cc1 | i | 0.9
O=C(CC(=O)OCc1ccccc1)OCc1ccccc1 | i | -1.5
CCCc1cn([C@H]2C[C@@H]3O[C@@H](CO)CC[C@@H]3O[C@@H]2CCc2ccc(-c3ccc(OC)cc3)cc2)nn1 | i | -2.7
Cc1ccsc1-c1cc2nc(NCCOc3ccccc3Cl)n(C)c(=O)c2s1 | i | -12
C=CC[C@]1(C(=O)N2CCOCC2)COC(c2ccc(OCCCO)cc2)=N1 | i | -0.2
COc1ccccc1CNC(=O)COC(=O)CCN1C(=O)C2CC=CCC2C1=O (centres undefined) | i | -3.2
O=C(c1ccc(N2CCCC2=O)cc1)N1CCN(c2ccc(C(F)(F)F)cc2[N+](=O)[O-])CC1 | i | 4.1
Cc1ccccc1C1=C/C(=C(\SS/C(C(=O)c2ccc(OCC(=O)O)c(Cl)c2Cl)=C2\C=C(c3ccccc3C)SS2)C(=O)c2ccc(OCC(=O)O)c(Cl)c2Cl)SS1 | i | 11
CC(C)c1cn([C@H]2C[C@@H]3O[C@H](CO)CC[C@@H]3O[C@@H]2CCc2ccc(C#CC3CCCCC3)cc2)nn1 | i | -0.1
